From PubChem BioAssay
ALR H2O2 inh – inhibitors of human sulfhydryl oxidase ALR; P55789; purified ALR, DTT oxidation, H2O2 HRP-luminol luminescence; inhibition, % (concentration not given with the values); 3.8% of 290,000 active;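 active means mean and each replicate at 75% or more; inconclusive means only one of the two met; inactive means neither met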;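 further: stock transfer was 7.5 nL into about 7.5 µL; 0% = neutral wells and 100% = wells with inactivated enzyme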
Target sequence (P55789 whole entry, looked up): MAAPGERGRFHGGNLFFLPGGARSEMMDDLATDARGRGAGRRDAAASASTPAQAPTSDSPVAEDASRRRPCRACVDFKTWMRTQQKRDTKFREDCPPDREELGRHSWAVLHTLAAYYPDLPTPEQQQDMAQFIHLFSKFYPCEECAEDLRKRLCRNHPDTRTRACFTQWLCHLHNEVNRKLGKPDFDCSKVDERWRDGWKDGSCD
Bfl-1 A1 inh – inhibitors of the anti-apoptotic protein A1, read as caspase activation. MEF A1-2A-BIM cells, Caspase-Glo 3/7 luminescence, 3 h; percent of clofoctol response, vehicle zero. caspase activation, % (test concentration not listed). 0.066% of 330,000 active. AID 2462;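 active means over half of replicate activation scores above 10%, or exactly half above 10 with the replicate mean above 10; inconclusive means replicate mean below 10 yet half the replicates above 10; inactive means over half of replicates below 10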;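 further: wells of about 30 µL received 50 nL stock; many hits fall short of the cut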
Ecoli rRNA inh – inhibits bacterial ribosomal RNA function over humanized ribosomes; E. coli WT GFP vs humanized-ribosome RFP mutants, fluorescence, 24 h; stronger effect = lower value; DMSO median 0, no signal -100; GFP signal change (wild-type ribosome), % (no concentration beside the values); 1.6% of 350,000 active; AID 720706;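 active means significant combined selectivity score with lowered wild-type GFP, culture density cut under 30%, mutant RFP and density less affected; inactive means any of these conditions unmet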; further: one replicate is shown; some compounds called inactive have numbers as strong as hits
Calb FLC – C. albicans growth modulation with fluconazole. C. albicans CaCi-2 (fluconazole-resistant clinical isolate) + fluconazole, Alamar Blue growth, 48 h. growth inhibition, % (concentration not given with the values). 0.57% of 300,000 active;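 active means most replicates above 75%; inconclusive means exactly half above 75%; inactive means most below 75%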;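 further: all wells also contain fluconazole at 8 µg/ml as a sub-toxic cotreatment; 0% = median of DMSO wells and 100% = median of geldanamycin control wells; wells of about 8 µL received 7.5 nL stock; the first replicate is given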
Beta apoptosis – beta cell apoptosis inhibition | INS-1E cytokine-induced death, ATP luminescence, 48 h; percent of positive-control rescue, neutral wells zero | protection from apoptosis, % (no concentration beside the values) | 0.8% of 300,000 active | AID 435005;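 active means all replicates at 75% or more, or half of them and the mean; inconclusive means half reach 75% but not the mean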;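 further: 0% = cytokine-treated negative control wells and 100% = positive control rescue; higher means more ATP so stronger rescue from cytokine killing; wells of about 40 µL received 100 nL stock; the first replicate is given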
T cruzi inh – blocks replication of Trypanosoma cruzi | T. cruzi beta-gal in NIH3T3, luminescence, 90 h | inhibition, % (concentration not given with the values) | 1.4% of 300,000 active;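 active means mean inhibition across valid replicates above about 55%, limit read from the data; inconclusive means mean below that limit but half or more replicates reach it; inactive means mean below it, under half of replicates reach it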;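 further: signal also drops with host cell toxicity which is not excluded here; 0% = plate median of DMSO wells and 100% = zero luminescence signal; higher percent means less beta-gal luminescence so fewer parasites; stock transfer was 50 nL into about 50 µL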
Beta2AR agonist – activates human beta-2 adrenergic receptor causing internalization; P07550; Am2.2-beta2AR cells, FAP receptor internalization, flow cytometry; reference of the scale not given here; AID 504454; 0.43% of 340,000 active; response, % (test concentration not listed);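 active means response above a set limit, near 3 SD of response in nonfluorescent compounds, cut at about 42% in these data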;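 further: stock transfer was 100 nL into about 11 µL; a reference agonist was the positive control; negative values mostly stem from fluorescent compounds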
Target sequence (P07550 whole entry, looked up): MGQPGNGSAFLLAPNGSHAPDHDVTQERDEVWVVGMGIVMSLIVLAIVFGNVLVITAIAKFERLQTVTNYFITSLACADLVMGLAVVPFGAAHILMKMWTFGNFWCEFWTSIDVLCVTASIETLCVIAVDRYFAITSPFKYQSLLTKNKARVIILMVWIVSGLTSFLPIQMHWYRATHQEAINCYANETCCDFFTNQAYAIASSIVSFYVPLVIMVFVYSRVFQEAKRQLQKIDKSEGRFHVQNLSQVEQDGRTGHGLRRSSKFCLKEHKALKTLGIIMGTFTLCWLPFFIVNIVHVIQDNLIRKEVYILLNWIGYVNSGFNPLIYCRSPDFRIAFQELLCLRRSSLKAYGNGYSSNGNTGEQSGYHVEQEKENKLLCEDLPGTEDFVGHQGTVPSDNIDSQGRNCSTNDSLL
LANA-H2A inh – blocks KSHV LANA binding to histone H2A/H2B; Q9QR71; AID 2629; 0.6% of 320,000 active; cell-free LANA-H2A/H2B peptide, fluorescence polarization; inhibition, % (concentration not given with the values); in the data active means inhibition mostly above about 10%, no sharp cut-off; inactive means mostly below about 6.7%;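 further: stock transfer was 7.5 nL into about 10 µL; 0% = median of vehicle wells and 100% = median of positive control wells; one replicate is shown; the record names a cut of 25% in any replicate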
Ecoli rRNA inh OD600 – also measured in Ecoli rRNA inh; calls as there; OD600 change, %; measured here: OD600 growth;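 optical density of the mix in the first replicate; 0 = DMSO median and -100 = no signal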
Ecoli rRNA inh RFP – recorded beside Ecoli rRNA inh, whose call it bears; RFP signal change, %; measured here: RFP humanized mutant strains;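 first replicate; 0 = DMSO median and -100 = no signal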
* hit, by the source's call; i = inactive; ? = inconclusive; . = not tested or not shown; + = active, no number. This is a subset; the hit share may differ from the screen's.

SMILES	ALR H2O2 inh	Bfl-1 A1 inh	Ecoli rRNA inh	Ecoli rRNA inh OD600	Ecoli rRNA inh RFP	Calb FLC	Beta apoptosis	T cruzi inh	Beta2AR agonist	LANA-H2A inh
O=C(c1cc(COc2c(F)cccc2F)on1)N1CCCCCC1	-13	1.2	-10	-17	5.1	-3	-7	-7	1	-1.6
CC[C@@]1(O)C(=O)OCc2c1cc1n(c2=O)Cc2cc3c(CN(C)C)c(O)ccc3nc2-1	52	0.9	51	13	1.5	.	58	20	1	68*
O=C(/C=C/c1cccc(Cl)c1)OCc1cn2cc(Cl)ccc2n1	-4	-0.5	14	12	0.0	0	-4	-3	-4	-0.3
COc1ccc(/C=C/C(=O)O)cc1S(=O)(=O)NCc1ccco1	0	-0.5	14	8	-0.8	2	-2	0	-6	-1.1
Cc1ccc(C)c(N2CCN(CCCNC(=O)Cn3cccc3C(=O)c3ccccc3)CC2)c1	.	0.2	-51	-79	-15	13	10	34	18	-0.7
OCCC#Cc1ccc(CN2CCN(Cc3ccccc3)C(CCO)C2)cc1 (stereo not drawn)	.	1.8	-4	-5	-3.0	-31	-4	34	6	-0.6
Cc1ccc2[nH]c3c(=O)n(CCc4cnc[nH]4)cnc3c2c1	-12	0.5	.	.	.	-2	-1	22	-1	-16
CN(Cc1nc2ccccc2c(=O)[nH]1)C(=O)c1cccc(S(=O)(=O)N2CCCC2)c1	.	-0.5	0	-5	-2.1	.	4	.	0	1.8
NNC(=O)c1ccc(CN2C(=O)c3cccc4cccc2c34)cc1	2	-0.4	-18	-27	15	13	-12	2	8	-0.4
CCN(CC)c1nc(N2CCOCC2)c(C#N)c2c1CN(C)CC2	24	0.3	.	.	.	8	-12	42	-6	0.2
COc1cc(/C=C(/NC(=O)c2ccccc2)C(=O)N2CCN(C)CC2)c([N+](=O)[O-])cc1OC	-14	-0.3	7	10	-1.3	9	1	-12	-7	-2.0
O=C(CCC(=O)NC1CCN(Cc2ccccc2)CC1)NCc1ccco1	-2	0.3	.	.	.	-6	-3	-11	6	-4.6
COc1ccc2[nH]cc(S(=O)(=O)c3ccc(F)cc3)c(=O)c2c1	.	-0.4	5	-3	0.3	0	-9	4	7	0.3
COc1ccc(CNC(=O)COC(=O)c2cccn2C)cc1	-5	-3.4	-5	5	1.9	.	-2	.	3	5.7
CN(CCC#N)C(=S)NC(=O)c1ccc(S(=O)(=O)N2CCOCC2)cc1	-21	0.1	18	9	1.4	-12	.	-21	-2	5.7
CC(=O)c1cccc(S(=O)(=O)N2CCCC(c3nc(-c4ccc(C)o4)no3)C2)c1 (stereo not drawn)	-3	-1.2	.	.	.	1	-7	0	54*	-0.3
CCCSc1ccc(-c2nn(-c3ccccc3)cc2/C=C(/C#N)C(=O)NCCCOC)cc1	5	-0.2	.	.	.	1	-3	24	-19	-1.4
Cc1ccc(SCC(=O)O/N=C(\N)c2ccncc2)cc1	1	-0.3	.	.	.	-7	.	4	3	-10.0
Cc1ccc(-c2n[nH]c(=O)c3ccccc23)cc1S(=O)(=O)NCCO	1	1.4	.	.	.	6	-3	-3	-2	1.3
Cc1ccc(NC(=O)Nc2nnc(CSCCOc3ccc(Cl)cc3)s2)cc1	-13	0.4	.	.	.	-7	2	-10	3	-6.0

Copied from the list.
COc1ccc(/C=C/C(=O)O)cc1S(=O)(=O)NCc1ccco1 in Ecoli rRNA inh OD600: 8
CCN(CC)c1nc(N2CCOCC2)c(C#N)c2c1CN(C)CC2 in ALR H2O2 inh: 24

(cont.)
SMILES	ALR H2O2 inh	Bfl-1 A1 inh	Ecoli rRNA inh	Ecoli rRNA inh OD600	Ecoli rRNA inh RFP	Calb FLC	Beta apoptosis	T cruzi inh	Beta2AR agonist	LANA-H2A inh
COc1ccccc1C(=O)N/C(=C\c1cn(S(=O)(=O)N(C)C)c2ccccc12)C(=O)N1CCCC1	-4	0.6	-13	-22	-0.5	13	2	10	10	0.1
Cc1cc(NC(=O)c2c(-c3c(Cl)cccc3Cl)noc2C)n(C)n1	7	-0.3	-1	-5	2.6	-14	2	-6	-2	-1.1
COc1ccc(C2(c3ccc(OC)cc3)NC(=O)N(CC(=O)NC3CCS(=O)(=O)C3)C2=O)cc1 (stereo not drawn)	.	0.8	3	5	-4.3	.	-4	.	-15	-1.8
COc1ccc(NC(=O)CN(C)C(=O)c2ccc3[nH]c4c(c3c2)CC(C)CC4)cc1 (stereo not drawn)	7	0.0	-14	-23	4.1	0	8	3	-4	-2.5
Cn1c(=O)n(C)c2cc(NC(=O)COc3ccc(F)cc3F)ccc21	30	-0.8	-9	-11	-3.0	2	-8	0	-8	3.1
Cc1nc2ccccc2cc1OCc1ccc(Cl)cc1	-2	.	.	.	.	34	109*	16	3	-2.2
O=C(Cc1cccs1)Nc1nnc(-c2ccncc2)s1	-8	1.0	.	.	.	22	0	-17	-12	-1.9
O=C(Nc1ccc(NC(=O)c2cccs2)cc1)c1ccc(Br)o1	0	-0.1	.	.	.	72	0	13	-4	0.1
COCCNC(=O)c1ccc(CN2CCC(Cc3ccccc3)CC2)cc1	3	-0.1	6	11	-3.7	-9	3	4	-5	1.5
COc1ccc(C(=O)NCCc2nnc3ccc(SCC(=O)Nc4cc(C)on4)nn23)cc1	-9	0.4	5	4	-2.2	-12	0	6	-5	0.2
O=C(Nc1nc(-c2cccs2)cs1)c1cccc(S(=O)(=O)N2CCCCC2)c1	24	-1.3	.	.	.	.	-4	62*	5	1.7
O=C(ONC1=NCCCCC1)c1ccc(Cl)cc1	0	2.0	.	.	.	-5	1	10	13	-1.0
Cc1c(CN2CCN(CC(C)(C)C)C(CCO)C2)[nH]c2ccccc12 (stereo not drawn)	-3	1.0	11	5	3.5	-1	-4	-8	0	2.0
COc1ccc2cc1Oc1ccc(cc1)C[C@H]1c3c(cc4c(c3Oc3cc5c(cc3OC)CCN(C)[C@@H]5C2)OCO4)CCN1C	0	-0.2	2	3	9.7	.	.	45	36	-6.0
COc1cccc(-c2nnc3sc(-c4ccccc4)nn23)c1	-4	0.8	.	.	.	24	5	11	-19	1.0
Brc1ccccc1/C=N/N1CCCCC1	-7	0.0	-3	-2	-1.0	-4	0	-30	3	-0.9
COC(=O)c1c(-c2ccc(F)cc2)csc1NC(=O)C1CCCO1 (stereo not drawn)	-17	0.9	-34	-50	-13	1	9	-7	2	-0.9
O=C(c1ccc(C(F)(F)F)cc1)C1CCCN(C(=O)Cn2cncn2)C1 (stereo not drawn)	-15	0.2	12	8	-1.4	-6	0	1	2	2.9
NC(=O)C1(N2CCCCC2)CCN(S(=O)(=O)c2cc(Cl)sc2Cl)CC1	-1	0.3	-20	-10	9.7	14	6	-2	-4	2.3
c1csc(CNCCN2CCOCC2)c1	-2	-0.9	3	4	-4.3	-10	-1	5	-10	-5.1
COC(=O)[C@]1(C)N[C@H](CN(C)C(=O)Nc2ccc(Cl)cc2)[C@@H]2C(=O)N(Cc3ccccc3)C(=O)[C@@H]21	-3	-0.6	17	19	5.3	.	-21	.	9	+
COc1ccc(-c2nn(-c3ccccc3)cc2/C=N/Nc2ccccn2)cc1OC	-1	-0.1	.	.	.	-3	60	-3	18	4.3
CCOC(=O)C1=C(CC)Nc2ccccc2N/C1=N\S(=O)(=O)c1cc(Br)ccc1Br	.	.	-59	-78	-22	50	.	-19	-2	.
O=C(O)COCC(=O)Nc1ccc(-n2nc(C(F)(F)F)cc2-c2cccs2)cc1	1	-2.0	-15	-11	1.3	-1	-5	-16	0	2.2
C=CCNS(=O)(=O)c1ccc(N2C(=O)c3ccccc3C2=O)cc1	1	0.9	10	8	0.8	-1	0	-5	1	-3.7
CCCN1CCN(C(=O)c2ccccc2-c2nc3ccccc3s2)CC1	.	0.2	4	-11	6.8	-2	-3	3	5	-1.0
CC(C)C(CCNC1CCN(C)CC1)c1ccc(Cl)cc1 (stereo not drawn)	.	1.0	10	6	2.7	-25	.	29	28	-4.4
CCN1CCN(c2ccc(S(=O)(=O)N3CCOCC3)cc2NC(=O)c2sccc2C)CC1	-17	0.7	10	12	2.1	-3	.	52	2	-1.9
CC(C)Cn1c(SCC(=O)NC(=O)NC2CCCC2)nc2ccccc21	4	0.4	-4	-12	2.5	-10	-2	9	-1	0.4
Cc1cc(C)nc(Nc2ccc(C(=O)O)cc2)n1	-7	-2.5	.	.	.	3	-3	-12	-11	4.6
COCCCNC(=O)COC(=O)c1ccc(-c2nc3ccccc3s2)s1	5	-8.2	-7	-6	14	12	6	0	-3	4.1
CCC(C)c1ccc(NC(=S)NCCn2cc(Cl)cn2)cc1 (stereo not drawn)	-3	0.7	-54	-68	-13	-32	-1	7	8	-2.9
COc1ccc(/C(O)=C2\C(=O)C(=O)N(Cc3ccco3)C2c2ccc(OC)cc2OC)cc1 (stereo not drawn)	-11	1.2	.	.	.	62	-6	-24	11	-3.2
O=C(CCCC(=O)N/N=C/c1ccccc1C(=O)O)N/N=C/c1ccccc1C(=O)O	-8	0.6	13	5	-6.0	-3	-4	-1	-3	-1.2
Cc1ccc(S(=O)(=O)c2cccc(S(=O)(=O)N3CCOCC3)c2)cc1S(=O)(=O)N1CCOCC1	-6	-0.4	.	.	.	14	-4	10	-1	-1.5
O=C(COc1cccc(Br)c1)Nc1ccc(N2CCOCC2)cc1N1CCOCC1	-1	-0.1	.	.	.	.	4	.	15	i
CCC(C)NC(=O)COC(=O)c1csc2c1CCCC2 (stereo not drawn)	-2	0.9	.	.	.	-15	-11	-19	15	1.0
Cc1ccc(CCNC(=O)c2ccc(CS(=O)(=O)c3ccccc3C)o2)cc1	-10	-1.2	-11	-6	3.2	-1	6	10	-2	0.4
CC(=O)Nc1ccc(S(=O)(=O)N=S(C)(C)=O)cc1	-5	0.6	7	3	-0.3	-9	0	1	1	1.3
CCOC(=O)N1CCN(CC(O)COCCC23CC4CC(CC(C4)C2)C3)CC1 (stereo not drawn)	-30	-1.2	.	.	.	2	.	68*	-22	-2.1
CCCc1nnc(NC(=O)C2CCN(C(=O)c3ccco3)CC2)s1	-6	0.4	-6	-7	-0.6	1	-4	-23	-2	1.9
Cc1nc2cc(N3CCN(C)CC3)c(NC(=O)Cc3ccccc3)cc2c(=O)n1Cc1ccccc1	-12	-1.1	.	.	.	-3	-3	34	6	0.8
CCOc1ccccc1C(=O)NCC(=O)N(C)Cc1ccccc1C	42	-0.1	-12	-6	1.5	?	9	23	-8	0.3
CCc1nc(Nc2ccc(OC)c(OC)c2)c2nnn(Cc3ccccc3Cl)c2n1	-2	-1.5	.	.	.	-1	55	20	9	-0.2
Cc1cccc(NC(=O)c2cccs2)n1	2	-6.9	.	.	.	2	-2	-11	-2	-4.6
Cc1ccc(NC(=O)CCN2CCC(C(N)=O)CC2)cc1	1	0.0	10	5	0.0	4	5	-5	3	1.6
CC(C)c1csc2nc3n(c(=O)c12)CCCCC3	-9	-0.1	-33*	-18*	-0.3*	-12	-15	-3	-1	-3.4
